Bioassay records as filed in PubChem BioAssay.
Yeast UUG start = yeast start codon fidelity modulation. S. cerevisiae UUG-firefly luciferase reporter, luminescence/redox ratio. activity score, % at 18.7 µM. actives 0.13% (n = 350,000);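 active = replicate mean at a twofold rise or more, about +100% in these data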;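 also: firefly luciferase made from a UUG start codon reports start codon fidelity; reporter light over untreated wells divided by growth signal over untreated wells; some hits fall short of that in this replicate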
Env fusion inh = inhibitors of HIV Env-mediated cell fusion. HeLa-JRFL Env/CEM21 cell fusion, luciferase. inhibition, % at 12.3 µM. actives 1.1% (n = 360,000). AID 651610;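 active = mean replicate inhibition score of at least 50 and every replicate individually at or above 50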;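 also: 0% = plate neutral controls and 100% = maraviroc near 300 nM; one replicate is shown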
Active calls of the source: *; [ ] = dose if it differs, or a comment. Some of the compounds tested, so the mix of outcomes need not match the whole.

SMILES | Yeast UUG start | Env fusion inh
O=C(Cc1ccccn1)NCC[C@@H]1CC[C@@H](NS(=O)(=O)c2ccc(Cl)cc2)[C@@H](CO)O1 | 1 | 25[16.7 µM]
C[C@@H]1CN([C@H](C)CO)C(=O)c2cccc(NC(=O)C3CCOCC3)c2O[C@H]1CN(C)Cc1ccc(Oc2ccccc2)cc1 | 22 | -2[16.7 µM]
CC(C)NC(=O)N(C)C[C@@H]1Oc2ncc(C#CCc3ccccc3)cc2C(=O)N([C@H](C)CO)C[C@H]1C | 10 | 7[16.7 µM]
C/C=C/c1cnc2c(c1)C(=O)N([C@@H](C)CO)C[C@@H](C)[C@H](CN(C)C(=O)c1ccc3c(c1)OCO3)O2 | 95 | 1[16.7 µM]
C[C@H](CO)N1C[C@H](C)[C@H](CN(C)C(=O)Nc2cccc3ccccc23)Oc2ccc(NS(=O)(=O)c3ccc(F)cc3)cc2CC1=O | -3 | -4[16.7 µM]
O=C(N[C@@H]1CC[C@@H](CCn2cc(-c3ccccn3)nn2)O[C@@H]1CO)c1ccc(F)cc1 | -9 | -22[16.7 µM]
COc1ccc(NC(=O)N(C)C[C@H]2Oc3ccc(NS(=O)(=O)c4ccccc4)cc3C(=O)N([C@@H](C)CO)C[C@H]2C)cc1 | 6 | 5[16.7 µM]
C[C@@H]1CN([C@@H](C)CO)C(=O)c2cc(NC(=O)Cc3cn(C)c4ccccc34)ccc2O[C@@H]1CN(C)CC1CC1 | 20 | -15[16.7 µM]
C[C@@H]1CN([C@@H](C)CO)C(=O)Cc2cc(NC(=O)Cc3ccccc3)ccc2O[C@@H]1CN(C)Cc1ccccc1 | -21 | -19[16.7 µM]
COc1ccc(S(=O)(=O)N(C)C[C@H]2Oc3ccc(NC(=O)Nc4ccccc4)cc3CC(=O)N([C@H](C)CO)C[C@H]2C)cc1 | 6 | 6[16.7 µM]
C[C@@H]1CCCCO[C@H](CN(C)C(=O)Cc2ccccc2)[C@@H](C)CN([C@@H](C)CO)C(=O)c2cc(NC(=O)c3ccncc3)ccc2O1 | 15 | -45[16.7 µM]
C[C@H](CO)N1C[C@H](C)[C@H](CN(C)C(=O)CN(C)C)Oc2cc(C#Cc3cccnc3)ccc2S1(=O)=O | 26 | 8[16.7 µM]
O=C(C[C@@H]1C=C[C@@H](NC(=O)CCN2CCCCC2)[C@H](CO)O1)Nc1nccs1 | -4 | -4[16.7 µM]
CC(=O)N(C)C[C@@H]1Oc2cc(-c3ccncc3)ccc2S(=O)(=O)N([C@@H](C)CO)C[C@H]1C | -4 | -11[16.7 µM]
Cc1noc(C)c1NC(=O)Nc1ccc2c(c1)C(=O)N([C@H](C)CO)C[C@H](C)[C@@H](CN(C)C(=O)Cc1ccccc1)OCCCC[C@@H](C)O2 | 22 | 7[16.7 µM]
O=C(C[C@H]1C[C@@H]2c3cc(NC(=O)NC4CCCCC4)ccc3O[C@@H]2[C@H](CO)O1)NCc1ccncc1 | 12 | -14[16.7 µM]
COc1ccc(NC(=O)Nc2ccc3c(c2)[C@@H]2C[C@H](CC(=O)N4CCOCC4)O[C@H](CO)[C@@H]2O3)cc1 | -2 | 9[16.7 µM]
C[C@H]1CCCCO[C@@H](CN(C)C(=O)Nc2ccc3c(c2)OCO3)[C@@H](C)CN([C@@H](C)CO)C(=O)c2cc(NC(=O)c3ccccc3)ccc2O1 | 24 | 9[16.7 µM]
CCC(=O)Nc1ccc2c(c1)C(=O)N(C)[C@H]1CC[C@@H](CC(=O)NCCc3ccccc3)O[C@@H]1CO2 | 4 | -3[16.7 µM]
C[C@H](CO)N1C[C@H](C)[C@H](CN(C)CC2CCCCC2)Oc2ccc(NC(=O)CCC(F)(F)F)cc2C1=O | 17 | 12[16.7 µM]
CCC(=O)N[C@@H]1C=C[C@H](CC(=O)OC)O[C@@H]1CO | 14 | -24[16.7 µM]
CCCNC(=O)Nc1ccc2c(c1)C(=O)N(C)C[C@@H](OC)[C@@H](C)CN(C)[C@@H](C)CO2 | 7 | 8[16.7 µM]
Cc1noc(C)c1S(=O)(=O)N(C)C[C@H]1OCCCC[C@@H](C)Oc2ccc(NS(C)(=O)=O)cc2C(=O)N([C@@H](C)CO)C[C@H]1C | 17 | -22[16.7 µM]
C[C@@H]1CCCCO[C@@H](CN(C)C)[C@@H](C)CN([C@@H](C)CO)C(=O)c2cc(NS(=O)(=O)c3ccc(Cl)cc3)ccc2O1 | 14 | 13[16.7 µM]
C[C@@H]1CN([C@@H](C)CO)C(=O)c2cc(NC(=O)c3ccncc3)ccc2O[C@@H](C)CCCCO[C@@H]1CN(C)S(=O)(=O)c1ccccc1 | 18 | -11[16.7 µM]
Continuation:
SMILES | Yeast UUG start | Env fusion inh
COc1ccc(CN(C)C[C@@H]2Oc3c(NS(=O)(=O)c4ccccc4)cccc3C(=O)N([C@@H](C)CO)C[C@@H]2C)cc1 | -4 | -15[16.7 µM]
COc1ccccc1-c1cnc2c(c1)C(=O)N([C@@H](C)CO)C[C@H](C)[C@@H](CN(C)C(=O)c1cccnc1)O2 | 172* | 1[16.7 µM]
C[C@@H]1CN([C@@H](C)CO)C(=O)Cc2cc(NC(=O)Cn3cnnn3)ccc2O[C@H]1CN(C)Cc1ccc(C(=O)O)cc1 | 5 | -8[16.7 µM]
CCCNC(=O)N(C)C[C@@H]1Oc2cc(C#Cc3cccc(F)c3)ccc2S(=O)(=O)N([C@@H](C)CO)C[C@H]1C | 12 | -4[16.7 µM]
C[C@H]1CN([C@@H](C)CO)C(=O)Cc2cc(NC(=O)NC3CCCCC3)ccc2O[C@H]1CN(C)CC1CC1 | -5 | 43[16.7 µM]
C[C@H](CO)N1C[C@H](C)[C@H](CN(C)Cc2ccc(C(=O)O)cc2)OCCCC[C@H](C)Oc2ccc(NC(=O)Nc3cccc4ccccc34)cc2C1=O | 24 | 10[16.7 µM]
O=C(C[C@@H]1C[C@@H]2c3cc(NS(=O)(=O)c4ccc(F)cc4)ccc3O[C@@H]2[C@H](CO)O1)NC1CCCC1 | -6 | -23[16.7 µM]
CN(C)CC(=O)Nc1ccc2c(c1)[C@@H]1C[C@H](CC(=O)NCC3CC3)O[C@@H](CO)[C@@H]1O2 | 12 | 2[16.7 µM]
C[C@H](CO)N1C[C@H](C)[C@H](CN(C)C(=O)C2CCCCC2)OCCCC[C@H](C)Oc2ccc(N(C)C)cc2C1=O | 24 | -17[16.7 µM]
C[C@H](CO)N1C[C@H](C)[C@H](CN(C)C(=O)c2ccncc2)Oc2cc(C3=CCCC3)ccc2S1(=O)=O | -14 | 10[16.7 µM]
C[C@@H]1CN([C@@H](C)CO)C(=O)c2cc(C#CC3CC3)cnc2O[C@H]1CN(C)C(=O)CC1CC1 | 7 | -7[16.7 µM]
C[C@@H]1CN([C@H](C)CO)S(=O)(=O)c2ccc(-c3cccc(C#N)c3)cc2O[C@H]1CN(C)C(=O)c1cccnc1 | -10 | 5[16.7 µM]
C[C@@H]1CN([C@@H](C)CO)C(=O)Cc2cc(NS(=O)(=O)c3cccs3)ccc2O[C@H]1CN(C)C(=O)Nc1ccccc1 | -9 | -22[16.7 µM]
COc1ccc(NC(=O)Nc2cccc3c2O[C@H](CN(C)S(=O)(=O)c2cn(C)cn2)[C@H](C)CN([C@H](C)CO)C3=O)cc1 | 4 | 9[16.7 µM]
C[C@@H]1CCCCO[C@H](CN(C)C(=O)Nc2cccc3ccccc23)[C@@H](C)CN([C@@H](C)CO)C(=O)c2cc(NC(=O)C3CCCCC3)ccc2O1 | -10 | -71[16.7 µM]
O=C(NCC[C@H]1CC[C@@H](NC(=O)c2cnccn2)[C@H](CO)O1)Nc1ccc(F)cc1 | -6 | 4[16.7 µM]
Cc1noc(C)c1NC(=O)N(C)C[C@@H]1OCCCC[C@@H](C)Oc2ccc(NS(=O)(=O)c3ccc(Cl)cc3)cc2C(=O)N([C@H](C)CO)C[C@H]1C | -8 | -9[16.7 µM]
C[C@@H]1CN([C@@H](C)CO)C(=O)c2cc(C#Cc3ccccn3)cnc2O[C@H]1CN(C)C(=O)CCN1CCCCC1 | -3 | 4[16.7 µM]
O=C(NCC[C@H]1CC[C@@H](NS(=O)(=O)c2ccccc2)[C@H](CO)O1)c1ccc2c(c1)OCO2 | 17 | -11[16.7 µM]
O=C(N[C@H]1CC[C@H](CCNS(=O)(=O)c2cccc(Cl)c2)O[C@@H]1CO)c1ccccc1 | -3 | 8[16.7 µM]
COc1ccc(NC(=O)N(C)C[C@@H]2Oc3ccc(NC(=O)NC4CCCCC4)cc3C(=O)N([C@@H](C)CO)C[C@@H]2C)cc1 | 1 | 7[16.7 µM]
CN1C(=O)c2cc(NC(=O)c3cccc(Cl)c3)ccc2OC[C@@H]2O[C@@H](CC(=O)NC3CCCCC3)CC[C@H]21 | -1 | 6[16.7 µM]
CC(C)NC(=O)N(C)C[C@@H]1Oc2ccc(NC(=O)c3ccncc3)cc2C(=O)N([C@@H](C)CO)C[C@H]1C | -17 | 0[16.7 µM]
CC(C)NC(=O)N(C)C[C@H]1Oc2ccc(NC(=O)Nc3ccc(C(F)(F)F)cc3)cc2C(=O)N([C@@H](C)CO)C[C@@H]1C | 3 | 5[16.7 µM]
COc1ccc(NC(=O)Nc2ccc3c(c2)C(=O)N([C@H](C)CO)C[C@H](C)[C@@H](CN(C)S(=O)(=O)c2ccc(Cl)cc2)O3)cc1 | 2 | -23[16.7 µM]

Taken from the listing, 8 compounds:
SMILES | Yeast UUG start | Env fusion inh
C[C@H](CO)N1C[C@H](C)[C@H](CN(C)C(=O)c2ccncc2)Oc2cc(C3=CCCC3)ccc2S1(=O)=O | -14 | 10[16.7 µM]
C[C@@H]1CN([C@@H](C)CO)C(=O)c2cc(C#CC3CC3)cnc2O[C@H]1CN(C)C(=O)CC1CC1 | 7 | -7[16.7 µM]
C[C@@H]1CN([C@H](C)CO)S(=O)(=O)c2ccc(-c3cccc(C#N)c3)cc2O[C@H]1CN(C)C(=O)c1cccnc1 | -10 | 5[16.7 µM]
C[C@@H]1CN([C@@H](C)CO)C(=O)Cc2cc(NS(=O)(=O)c3cccs3)ccc2O[C@H]1CN(C)C(=O)Nc1ccccc1 | -9 | -22[16.7 µM]
COc1ccc(NC(=O)Nc2cccc3c2O[C@H](CN(C)S(=O)(=O)c2cn(C)cn2)[C@H](C)CN([C@H](C)CO)C3=O)cc1 | 4 | 9[16.7 µM]
C[C@@H]1CCCCO[C@H](CN(C)C(=O)Nc2cccc3ccccc23)[C@@H](C)CN([C@@H](C)CO)C(=O)c2cc(NC(=O)C3CCCCC3)ccc2O1 | -10 | -71[16.7 µM]
O=C(NCC[C@H]1CC[C@@H](NC(=O)c2cnccn2)[C@H](CO)O1)Nc1ccc(F)cc1 | -6 | 4[16.7 µM]
Cc1noc(C)c1NC(=O)N(C)C[C@@H]1OCCCC[C@@H](C)Oc2ccc(NS(=O)(=O)c3ccc(Cl)cc3)cc2C(=O)N([C@H](C)CO)C[C@H]1C | -8 | -9[16.7 µM]

New compounds follow:
SMILES | Yeast UUG start | Env fusion inh
COc1cccc(S(=O)(=O)N[C@@H]2CC[C@@H](CC(=O)NCc3ccccc3)O[C@@H]2CO)c1 | -3 | 23[16.7 µM]
C[C@@H]1CN([C@@H](C)CO)C(=O)c2cc(C3=CCCCC3)cnc2O[C@@H]1CN(C)C(=O)Cc1ccccc1 | 11 | 13[16.7 µM]
C[C@@H]1CCCCO[C@@H](CN(C)S(=O)(=O)c2cn(C)cn2)[C@H](C)CN([C@@H](C)CO)C(=O)c2cc(NS(=O)(=O)c3ccc(Cl)cc3)ccc2O1 | -3 | -16[16.7 µM]
CCCNC(=O)C[C@H]1C[C@@H]2c3cc(NC(=O)Nc4ccccc4)ccc3O[C@@H]2[C@H](CO)O1 | 24 | 48[16.7 µM]
COc1ccc(NC(=O)N(C)C[C@@H]2Oc3cc(-c4ccc(C)cc4)ccc3S(=O)(=O)N([C@H](C)CO)C[C@@H]2C)cc1 | -3 | 13[16.7 µM]
C[C@H](CO)N1C[C@H](C)[C@@H](CN(C)Cc2cccnc2)Oc2cc(C#C[C@@H](C)O)ccc2S1(=O)=O | 0 | 6[16.7 µM]
CCCC#Cc1ccc2c(c1)O[C@H](CN(C)C(=O)c1ccccc1)[C@H](C)CN([C@H](C)CO)S2(=O)=O | 6 | 3[16.7 µM]
O=C(Nc1ccc2c(c1)OCO2)N[C@@H]1CC[C@@H](CCNC(=O)C2CCC2)O[C@H]1CO | -5 | -8[16.7 µM]
C[C@H](NC(=O)C[C@@H]1CC[C@H](NC(=O)Cc2ccccn2)[C@@H](CO)O1)c1ccccc1 | -9 | 4[16.7 µM]
COCC#Cc1cnc2c(c1)C(=O)N([C@@H](C)CO)C[C@H](C)[C@H](CN(C)C(=O)c1cnccn1)O2 | -6 | -8[16.7 µM]
CO[C@@H]1CN(C)C(=O)c2ccc(NC(=O)Nc3ccccc3)cc2OC[C@@H](C)N(CC2CC2)C[C@@H]1C | -1 | -4[16.7 µM]
C[C@@H]1CN([C@@H](C)CO)C(=O)Cc2cc(NC(=O)Nc3ccc(C(F)(F)F)cc3)ccc2O[C@H]1CN(C)Cc1ccc2c(c1)OCO2 | 11 | 29[16.7 µM]
C/C=C/c1ccc2c(c1)O[C@H](CN(C)C(=O)COC)[C@H](C)CN([C@H](C)CO)S2(=O)=O | -9 | -18[16.7 µM]
C[C@@H]1CCCCO[C@H](CN(C)CC2CCCCC2)[C@@H](C)CN([C@H](C)CO)C(=O)c2cc(NC(=O)Nc3cccc4ccccc34)ccc2O1 | -10 | -42[16.7 µM]
COC(=O)C[C@@H]1CC[C@@H]2[C@@H](COc3ccc(NS(=O)(=O)c4ccccc4F)cc3C(=O)N2C)O1 | -4 | -24[16.7 µM]
CC(=O)N(C)C[C@H]1Oc2ncc(C#Cc3cccc(F)c3)cc2C(=O)N([C@H](C)CO)C[C@H]1C | 16 | 19[16.7 µM]
